miR-21 reporter = raises the signal of a miR-21 reporter; HeLa miR-21 FLuc reporter, luciferase, 48 h; 340,000 tested, under 10 active; Potency, µM (doses to about 38.3 µM), inactives show at the top dose reporter change, positive = more light; AID 2288; active = well fitted rising curve with a large enough effect; inconclusive = small, poorly fitted or top-dose-only effect; inactive = no such curve, though single readings can be large or run the other way;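 also: % of control where 0% means no effect; miR-21 action dims this reporter so a rising signal means less miR-21 action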
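HeLa cells endogenously expressing miR-21, stably carrying CMV-driven firefly luciferase with a downstream miR-21 binding site, 2000 cells/well. Titrations up to approximately 40 uM, 48 hours; luciferase luminescence read.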
* marks the source's active call; other numbers are inactive results; ? = inconclusive; [ ] = another dose, or the depositor's remark.

compound	miR-21 reporter
CC(=O)Nc1cccc(-n2cc3c(c2-c2ccccc2Cl)c(=O)n(C)c(=O)n3C)c1	-43.8%
Cc1cccc(NC(=O)Cn2c(=O)n(Cc3ccc(C(=O)NCc4ccc5c(c4)OCO5)cc3)c(=O)c3ccccc32)c1	-7.8%
CC(C)c1ccc(Nc2nc3c(S(=O)(=O)c4ccc(Br)cc4)nnn3c3ccsc23)cc1	-2.8%
Cc1ccc(CN2C(=O)SC(Nc3ccc(Cl)cc3)C2=O)cc1 (stereo not drawn)	2.5%
CCc1ccc2oc(C(=O)Nc3cc(C)ccc3C)cc(=O)c2c1	-11.9%
CCOCCCNC(=O)CN1C(=O)c2cccnc2Sc2ccccc21	0.1%
CCOc1ccc(CNC(=O)C2CCN(C(=O)c3sccc3-n3cccc3)CC2)cc1	-2.5%
CCOC(=O)N1CCc2c(sc3c2c(=O)n(-c2ccc(CC)cc2)c(=O)n3CC(=O)c2ccccc2)C1	0.6%
CCOc1cc(C)c(C(C)C)cc1S(=O)(=O)n1ccnc1CC	3.5%
COc1cc(C(=O)Nc2ccc(Cl)c(-c3nc4ncccc4o3)c2)cc(OC)c1OC	21.7%

(next part)
compound	miR-21 reporter
CC(C)NC(=O)c1ccc(-n2c(-c3ccccc3)cc3c2CCCC3)cc1	15.6%
CCC1CCc2nc3sc(C(=O)Nc4ccc(C)cc4C)c(N)c3cc2C1 (stereo not drawn)	-2.1%
COc1ccc(S(=O)(=O)Nc2cc(S(=O)(=O)c3ccccc3)c(O)c(C)c2C)cc1	-0.8%
Cc1cccc(-c2nc(C)c(CCNC(=O)C(=O)Nc3ccccc3C#N)s2)c1	-13.8%
COc1cccc(CNC(=O)Cn2ncn3nc(-c4cccs4)cc3c2=O)c1OC	-16.6%
Cc1ccsc1CCN1C(=O)N(c2ccccc2)C(=O)C1CC(=O)Nc1ccc(F)cc1 (stereo not drawn)	?
Fc1ccc(-c2csc(=Nc3cccc(C(F)(F)F)c3)n2Cc2ccc3c(c2)OCO3)cc1	0.3%
COc1ccc(NC(=O)/C(C#N)=C/c2cc(C)n(-c3ccc(F)cc3)c2C)cc1	-16.6%
Cc1ccc(-c2n[nH]c3c2C(c2ccc(C(C)(C)C)cc2)NC3=O)cc1 (stereo not drawn)	0.2%
Cc1cccc(NS(=O)(=O)c2ccc3c(c2)OCC(C(=O)N2CCCC2)O3)c1C (stereo not drawn)	-5.3%

(further entries)
compound	miR-21 reporter
COc1ccc(C(=O)NCc2nnnn2-c2ccc(C)c(C)c2)cc1	0.5%
Cc1cccc(C2C=C(c3ccc(C)c(C)c3)Nc3nnnn32)c1 (stereo not drawn)	-4.2%
COc1ccc(OC)c(CNC(=O)c2cc3c(Cl)nc4ccccc4c3s2)c1	-0.6%
CCOc1ccc(-n2cc(C(=O)Nc3ccccc3OCC)c3cc(OC)c(OC)cc3c2=O)cc1	12.1%
CC(C)CCN1C(=O)N(c2ccccc2)C(=O)C1CC(=O)Nc1ccc(Cl)cc1 (stereo not drawn)	-0.4%
CCOC(=O)c1cccc(NC(=O)CC2C(=O)N(c3ccc(Cl)cc3)C(=O)N2C2CCCC2)c1 (stereo not drawn)	?
CCOC(=O)c1c(S(=O)(=O)N2CCC(C(=O)N3CCN(c4cccc(C)c4C)CC3)CC2)c(C)n(C)c1C	25.2%
CCOc1ccc(NC(=O)c2cn(C3CCCCC3)c(=O)c3c2c2ccccc2n3C)cc1	-15.8%
COc1cc2c(cc1OC)C(COc1ccc3c(C)cc(=O)oc3c1)N(C(=O)Cc1ccc(F)cc1)CC2 (stereo not drawn)	-8.0%
CCc1nnc2c(NCc3ccccc3OC)nc3ccccc3n12	-1.3%

Going on with the list.
compound	miR-21 reporter
CCc1ccc(-c2nc(SCC(=O)NCC3CCCO3)c(-c3ccc(F)cc3)[nH]2)cc1 (stereo not drawn)	2.1%
CCOc1ccc(NC(=O)C2CCN(c3nc4ccccc4[nH]3)CC2)cc1	-7.2%
COC(=O)c1c(C)oc2ccc(N(C(=O)c3ccncc3)S(=O)(=O)c3cc(C)c(C)cc3C)cc12	24.0%
CC(=O)N1CCCc2cc(S(=O)(=O)N3CCN(c4ccc(F)cc4)CC3)ccc21	8.6%
Cc1ccc(CC(=O)NCc2nc(-c3cccc(C)c3)no2)cc1	-4.7%
COc1ccccc1/C=C/c1nc2ccccc2n1C(C)C	-20.6%
COc1ccc(Cl)cc1N(C)C(=O)Cn1cnc2sc(C)c(S(=O)(=O)N3CCN(c4ncccn4)CC3)c2c1=O	-7.0%
Cc1oc(-c2ccc(C(=O)Nc3ccc(F)cc3)cc2)nc1COc1ccccc1	1.3%
COc1ccc(CNC(=O)CC2Oc3ccc(C)cc3NC2=O)cc1 (stereo not drawn)	-0.9%
CCOc1ccccc1-c1noc(CSc2nnc(-c3ccncc3)n2-c2ccc(F)cc2)n1	3.6%

(next part)
compound	miR-21 reporter
O=C(Nc1ccc(F)cc1)N1CCN(C(=O)c2nsc3ccccc23)CC1	3.3%
COc1ccc(Cl)cc1NC(=O)c1nn(-c2ccc(C)cc2)c(=O)n(C)c1=O	0.7%
Cc1ccc(-c2nnc(Nc3ccc(O)cc3)c3ccccc23)cc1S(=O)(=O)NCc1nc2ccccc2[nH]1	-1.4%
CCOc1ccc(C(=O)Cn2c(=O)n3nc(CCn4nc(C)cc4C)nc3c3cc(OC)c(OC)cc32)cc1	2.7%
Cc1cc(OCC(=O)Nc2sc3c(c2C(N)=O)CCCC3)ccc1C(C)C	-5.6%
O=C(CCCc1nc(-c2ccco2)no1)Nc1ccccc1[N+](=O)[O-]	-11.9%
Cn1c(=O)[nH]c(=O)c2c1nc(CN1CCN(c3ccccc3F)CC1)n2Cc1ccc(F)cc1	-26.9%
CC(C)c1ccc(OC(=O)c2cc(-c3ccc4c(c3)OCCO4)on2)cc1	-7.7%
CCOC(=O)c1ccc(N2C(=O)c3n[nH]c(C)c3C2c2ccc(OCC)cc2)cc1 (stereo not drawn)	?
CN(CC(=O)Nc1ccccc1Cl)S(=O)(=O)c1ccc(C(=O)N2CCOCC2)s1	1.0%

Continued:
compound	miR-21 reporter
CCOc1ccccc1NC(=O)CN1Cc2ccccc2C1=O	-1.8%
O=C(CSc1nnc(-c2ccccc2)o1)c1cccc([N+](=O)[O-])c1	2.1%
COc1ccc(-c2cc(C(F)(F)F)nc(SCC(=O)N3CCC(C)CC3)n2)cc1	1.8%
CC(=O)c1ccc(N2CCN(C(=O)C3CCN(S(=O)(=O)c4c(C)noc4/C=C/c4ccccc4F)CC3)CC2)cc1	10.0%
Cc1ccc(N(C)S(=O)(=O)c2ccc3[nH]cc(C(=O)O)c(=O)c3c2)cc1C	0.6%
COCCNC(=O)CCCn1c(SCc2ccccc2Cl)nc2c(sc3ccccc32)c1=O	-0.5%
COc1ccc(CNC(=O)c2cc3sccc3n2Cc2ccc(F)cc2)cc1	-3.8%
COc1ccccc1C1Nc2c(sc3nc(C)cc(C)c23)C(=O)N1c1ccccc1 (stereo not drawn)	-57.9%
O=C(CCn1cnc2ccccc2c1=O)NCc1ccccc1	-1.1%
COc1ccc([C@]23Cc4cc(C#N)ccc4C(O2)c2c(c4ccc(OC)cc4oc2=O)O3)cc1	-2.1%[7.66 µM]

(cont.)
compound	miR-21 reporter
CCNC(=O)c1c2c(nc3ccccc13)C(=O)N(C1CCCCC1)C2	-0.3%
Cc1ccc(NC(=O)C(=O)NCC(c2ccc3c(c2)OCO3)N2CCN(C)CC2)c(C)c1 (stereo not drawn)	0.2%
COc1ccc(-c2noc(-c3cc(-c4ccc(F)cc4)n[nH]3)n2)cc1	-7.4%
COc1cccc(NC(=O)C(=O)NCCc2sc(-c3cccc(C)c3)nc2C)c1	-55.0%
Cc1ccc2nc(-c3ccc(O)cc3)c(Nc3ccc(Cl)cc3)n2c1	0.8%
COc1ccc(-c2cc(-c3ccc(C)cc3)nc3c2COc2ccccc2-3)cc1	-8.7%
CCOc1ccccc1NC(=O)C1CCCN(S(=O)(=O)c2ccc3c(c2)CCCN3C(C)=O)C1 (stereo not drawn)	15.9%
O=C(Cc1cccs1)NC1CC(=O)N(c2ccccc2)C1 (stereo not drawn)	0.9%
CCCCN(CCCC)CCNC(=O)c1cc(-c2cccnc2)nc2ccc(S(=O)(=O)N3CCC(C)CC3)cc12	3.7%
Cc1cc(C)c2sc(NC(=O)c3ccc(S(=O)(=O)N4CCCC4)cc3)nc2c1	5.2%

Further structures follow.
compound	miR-21 reporter
Cc1cccc(NC(=O)Nc2nnc(N(C)C3CCCCC3)s2)c1C	-33.4%
CCC1CCCCN1CCCNC(=O)c1[nH]c2ccccc2c1Sc1ccc(Cl)cc1 (stereo not drawn)	-1.4%
CCn1cc2nc(SCc3ccccc3)n(Cc3ccc(C)cc3)c(=O)c2n1	-6.5%
Cc1ccc(NC(=O)C2CCN(S(=O)(=O)c3c(C)noc3C)CC2)c(C)c1	-3.2%
Cc1ccc(NC(=O)Cn2cc(C(=O)C3CC3)c3ccccc32)cc1C	-11.5%
CCn1c(CNC(=O)C23CC4CC(CC(C4)C2)C3)nnc1SCC(=O)Nc1ccc(C)cc1	-1.1%
CSc1nc(Nc2cccc(C)c2)c(C#N)c(-c2ccccc2)n1	-3.4%
COc1ccc(-n2c(CC3C(=O)Nc4ccc(C)cc43)nc3ccccc3c2=O)cc1 (stereo not drawn)	9.8%
N#Cc1ccc(OC(=O)c2cc(-c3ccc(Cl)cc3)on2)cc1	-7.4%
NCCCCCc1nnc(SCc2ccc(F)cc2)o1	4.4%

Sorted by length of the SMILES (largest number first): 3 of the compounds above.
compound	miR-21 reporter
CCc1ccc(-c2nc(SCC(=O)NCC3CCCO3)c(-c3ccc(F)cc3)[nH]2)cc1 (stereo not drawn)	2.1%
O=C(CSc1nnc(-c2ccccc2)o1)c1cccc([N+](=O)[O-])c1	2.1%
O=C(Cc1cccs1)NC1CC(=O)N(c2ccccc2)C1 (stereo not drawn)	0.9%

Next part.
compound	miR-21 reporter
O=[N+]([O-])c1cc(-c2nc(-c3ccccc3)no2)ccc1NCc1ccco1	11.5%
COc1ccc(NC(=O)Cn2c(=O)n(-c3ccccc3)c(=O)c3c4c(sc32)CCCC4)cc1	-1.7%
CN(C)CCCNc1cc(N2CCN(C3CCCCC3)CC2)c2noc3c2c1C(=O)c1ccccc1-3	?
CC1=C(C(=O)Nc2ccc(F)cc2)C(c2ccc(N(C)C)cc2)NC(=O)N1 (stereo not drawn)	-8.7%
COc1ccc(CNC(=O)c2c(O)nc3cc(C)ccn3c2=O)cc1	-1.8%
Cc1ccc(C2NC(=O)c3n[nH]c(-c4cccs4)c32)cc1 (stereo not drawn)	-12.2%
COc1ccc(S(=O)(=O)c2cnc3ccc(Cl)cc3c2N2CCCCC2C)cc1 (stereo not drawn)	-6.0%
Cc1c(C2=CCN(S(=O)(=O)c3cccc(Cl)c3)CC2)c2ccccc2n1CC(=O)N1CCCC1	-3.7%
CN1CC(=O)N(CC(=O)Nc2ccc(Cl)c(C(F)(F)F)c2)c2ccccc2C1=O	10.0%
CCc1cccc(C)c1NC(=O)CCn1c(=O)c2cccn2c2ccccc21	0.5%

Continuation.
compound	miR-21 reporter
COc1ccc(N2CCN(C(=O)c3noc4c3CCCCC4)CC2)cc1	-44.2%
O=C(CCC1N=C2c3ccccc3N=C(SCc3ccccc3Cl)N2C1=O)NCc1cccs1 (stereo not drawn)	6.5%
O=C(c1cc2c(Cl)nc3ccccc3c2s1)N1CCCCC1	-46.8%
O=C(CCS(=O)(=O)c1nc(-c2cccs2)cc(C(F)(F)F)n1)Nc1ccc(F)c(Cl)c1	?
CCc1ccc(NC(=O)c2cc3nc(-c4ccc(C)cc4)cc(C(F)(F)F)n3n2)cc1	0.4%
COc1ccc(OC)c(CNC(=O)c2ccc3nc(C(C)C)oc3c2)c1	2.0%
Cc1cc(C)c(NC(=O)C(=O)NCC(c2cccnc2)N2CCN(c3ccccc3F)CC2)c(C)c1 (stereo not drawn)	3.6%
COc1cc(NC(=O)c2cc3ccc4cccnc4c3[nH]2)cc(OC)c1OC	1.2%
CCN(CC)c1nc2c(-c3cccc(Br)c3)nnn2c2ccccc12	-33.9%
COc1ccccc1CNC(=O)c1ccc2c(c1)nc(C)n2-c1ccccc1OC	-8.6%

Structures shown so far containing a nitro group on carbon, in the order listed:
compound	miR-21 reporter
O=C(CCCc1nc(-c2ccco2)no1)Nc1ccccc1[N+](=O)[O-]	-11.9%
O=C(CSc1nnc(-c2ccccc2)o1)c1cccc([N+](=O)[O-])c1	2.1%
O=[N+]([O-])c1cc(-c2nc(-c3ccccc3)no2)ccc1NCc1ccco1	11.5%

Next results follow:
compound	miR-21 reporter
COc1ccc(-c2oc3ncn4nc(-c5ccc(Cl)cc5)nc4c3c2-c2ccc(OC)cc2)cc1	-3.3%
CC(CNC(=O)C1CCN(Cc2cc3ccccc3n2Cc2ccccc2)CC1)c1ccccc1 (stereo not drawn)	20.4%
COc1ccc(Br)cc1CNC(=O)c1ccc2c(c1)nc1n2CCC(C)C1 (stereo not drawn)	-11.7%
CCCCN1C(=O)C(NC(=O)c2ccc(C(C)(C)C)cc2)(C(F)(F)F)C(C(=O)OC)=C1C (stereo not drawn)	8.6%
COc1ccccc1Nc1ncc2c(n1)CCN(CC(C)C)C2	-66.4%
NS(=O)(=O)c1ccc(CCNC(=O)CCn2c(=O)c3cccn3c3cccnc32)cc1	-1.6%
O=C(Cn1c(=O)nc(-c2ccccc2)c2cc(Cl)ccc21)Nc1ccc(F)c(Cl)c1	2.3%
CC1CCCCN1C(=O)CSc1nnc(-c2ccccc2Cl)o1 (stereo not drawn)	-30.7%
CC(C)NC(=O)CSc1nc2ccccc2nc1N1CCCCC1	1.9%
COc1ccc(-c2cc(C(C)=O)c(C)n2CCC(=O)Nc2ccc(C)c(Cl)c2)cc1	24.8%

Screens: PubChem, National Center for Advancing Translational Sciences (NCATS)

The list is partial; the hit share may differ from the screen's.
